Source: PubChem
LASV entry inh: Lassa virus entry inhibition; Potency, µM (series often up to 49.2 µM), inactives show at the highest dose activity change, negative = inhibition, most hits filed as inhibitors; Lassa virus pseudotyped entry inhibition, cell-based qHTS; control for the full effect not named in the record; many of its hits are not listed in these tables; 18,000 tested, 4.1% active; AID 720533; active = well fitted inhibition curve with a large enough effect; inconclusive = small, poorly fitted or top-dose-only effect; inactive = no such curve, though single readings can be large or run the other way; tested in HEK293 cells; also: luciferase read-out
MARV entry inh: blocks Marburg virus binding or cell entry | Marburg virus pseudotype entry/binding inhibition, cell-based; control for the full effect not named in the record; many of its hits are not listed in these tables | Potency, µM (top dose mostly 49.2 µM), inactives show top-dose activity change, negative = inhibition, actives largely listed as inhibitors | 18,000 tested, 6.5% active | AID 720532; active means well fitted inhibition curve with a large enough effect; inconclusive means small, poorly fitted or top-dose-only effect; inactive means no such curve, though single readings can be large or run the other way; tested in HEK293 cells; also: luciferase read-out
Numbers without * were called inactive; ? = inconclusive; nt = no result given; & = joins results of further samples; ! = not active in a repeat; [ ] = dose if it differs, or a comment. % is scaled to controls: 0 for no effect and ±100 for the full control effect; potency is read from the fitted curve at half-maximal effect. These rows are one share of the data, so the mix of outcomes need not match the whole.

Results follow in this order: LASV entry inh	MARV entry inh
- CN(C)c1ccc(C(=C2C=CC(=[N+](C)C)C=C2)c2ccccc2)cc1
 : 2.24µM*	1.41µM*!
- COC(=O)[C@@H]1[C@H]2CC[C@@H](C[C@H]1OC(=O)c1ccccc1)N2C
 : 0.3%	-15.0%
- COC(=O)c1ccc(CN2C(=O)[C@@]3(CC(C)=CC[C@@H](C)O3)c3ccccc32)cc1
 : 6.8%[8.59 µM]	-29.1%[8.59 µM]
- COc1cc2oc(=O)cc(CN3CCOCC3)c2cc1Cl
 : 6.7%	6.2%
- Cc1cccc(C(=O)NCN2CCN(c3ccccc3C#N)CC2)c1
 : -5.9%&-14.3%	16.6%&-7.5%
- N#Cc1nn(-c2c(Cl)cc(C(F)(F)F)cc2Cl)c(N)c1S(=O)C(F)(F)F (stereo not given)
 : ?	-4.0%&0.2%&7.6%&7.0%
- CN(C)c1ccc2[nH]c(O)c(C=Nc3ccc(S(N)(=O)=O)cc3)c2c1
 : nt	-21.6%
- CC(C)=CCCC(C)=CCN1C(=O)[C@@]2(C[C@@H](C)C[C@@H](C)O2)c2ccccc21
 : -22.2%[8.59 µM]	-6.8%[8.59 µM]
- COc1cc2ccc(=O)oc2c(OC)c1OC
 : -21.3%	8.8%
- O=S(=O)(c1ccc(Br)cc1F)N1CCC(O)CC1
 : 19.4%	42.7%[activator]
- O=C(O)c1c(Cl)c(Cl)c(Cl)c(Cl)c1-c1c2cc(I)c(=O)c(I)c-2oc2c(I)c(O)c(I)cc12
 : ?	1.9%&46.6%
- Cc1cc2oc(=O)cc(-c3ccccc3)c2c(C)c1-c1ccc(C#N)cc1
 : -2.8%	19.0%
- CC(C)n1cnc2c(NCc3ccccc3)nc(NCCO)nc21
 : -3.6%&6.4%	12.3%&7.7%
- COc1cc(-c2oc3cc(O)ccc3c(=O)c2O)ccc1O
 : 20.4%	8.7%
- O=C(NN=C1C[C@@H](O)[C@H](O)[C@H]2[C@@H]3C(=O)N(C[C@@H]4CCCO4)C(=O)[C@@H]3CC[C@@H]12)OCc1ccccc1
 : nt	-4.7%[8.59 µM]
- O=C(O)c1cc(=O)c2ccc(Cl)cc2[nH]1
 : 6.9%&-9.6%&-3.2%	16.3%&9.1%&9.3%
- CCCCCCCN[C@H]1CCC[C@@H]1CCCCCCC(=O)O
 : -15.0%	8.1%
- CCCCCCCCNS(=O)(=O)CCNCc1ccc(OC)cc1
 : 32.4%[activator]	25.6%
- O=C1c2ccccc2-c2cccc3cccc1c23
 : 19.0%	33.2%[activator]
- O=C(C[C@H]1C(=O)N(c2ccc(Br)cc2)C[C@@H]1Cc1ccccc1)Nc1ccccc1
 : ?	?
- Cc1ccc(CN2C[C@@H](Sc3nc(C)cc(C)n3)C[C@H]2C(=O)N2CCN(c3ccccc3F)CC2)cc1
 : -28.1%	-8.7%
- CCNC(=O)[C@@H]1CCCN1C(=O)[C@H](CCCN=C(N)N)NC(=O)[C@H](CC(C)C)NC(=O)[C@@H](Cc1c[nH]c2ccccc12)NC(=O)[C@H](Cc1ccc(O)cc1)NC(=O)[C@H](CO)NC(=O)[C@H](Cc1c[nH]c2ccccc12)NC(=O)[C@H](Cc1cnc[nH]1)NC(=O)[C@@H]1CCC(=O)N1
 : 3.16µM*	?
- Cc1c(Nc2ncccc2C(=O)O)cccc1C(F)(F)F
 : 11.6%	8.1%
- Cc1ccc2c(CN3CCN(c4ccccc4F)CC3)cc(=O)oc2c1
 : -22.8%	-13.1%
- Cc1ccnc(N)c1
 : 3.9%	-1.6%
- CC1(C)C[C@@H]2C(=O)CCC3O[C@@]3(C)CCC21 (stereo not given in full)
 : -0.4%	-8.4%
- CC[C@@H]1C(c2ccccc2)=NN(c2ccc(Br)cc2)[C@H]1C(=O)N1CCOC1=O
 : -20.4%	-8.9%
- NS(=O)(=O)c1ccc(N=Cc2c(O)[nH]c3ccc4ncsc4c23)cc1
 : nt	?
- COCCN1C(=O)N[C@@H](c2ccccc2)C(C(=O)OC)=C1C
 : 4.7%	-6.9%
- N[C@@H]1C[C@H]1c1ccccc1
 : 3.7%[17.8 µM]	-9.7%

Shown as tab-separated lines: entries from further up.
mol	LASV entry inh	MARV entry inh
CN(C)c1ccc(C(=C2C=CC(=[N+](C)C)C=C2)c2ccccc2)cc1	2.24µM*	1.41µM*!
COC(=O)[C@@H]1[C@H]2CC[C@@H](C[C@H]1OC(=O)c1ccccc1)N2C	0.3%	-15.0%

Copied from the list.
O=S(=O)(c1ccc(Br)cc1F)N1CCC(O)CC1 in MARV entry inh is listed with 42.7%[activator]
CCCCCCCN[C@H]1CCC[C@@H]1CCCCCCC(=O)O in MARV entry inh is listed with 8.1%
Cc1cccc(C(=O)NCN2CCN(c3ccccc3C#N)CC2)c1 in LASV entry inh is listed with -5.9%&-14.3%
Cc1c(Nc2ncccc2C(=O)O)cccc1C(F)(F)F in LASV entry inh is listed with 11.6%
CCCCCCCCNS(=O)(=O)CCNCc1ccc(OC)cc1 in LASV entry inh is listed with 32.4%[activator]
CC(C)n1cnc2c(NCc3ccccc3)nc(NCCO)nc21 in MARV entry inh is listed with 12.3%&7.7%

Other results.
Results follow in this order: LASV entry inh	MARV entry inh
- COc1cc2c(c3oc4cccc(O)c4c(=O)c13)C1C=CO[C@@H]1O2 (stereo not given in full)
 : ?	?
- CC(C)[C@@H](N)C(=O)O
 : 7.8%	-8.1%
- Cc1ccc(C2CC(=O)Oc3cc(C)c(Cl)cc32)cc1 (stereo not given)
 : 4.8%	1.4%
- C/C=C/c1ccc(OC(C)[C@@H](O)c2ccc(O)c(OC)c2)c(OC)c1 (stereo not given in full)
 : -15.9%	-1.6%
- NC1=N[C@H](O)[C@H]2C3O[C@]4(O)O[C@H](C(O)[C@@]2(N1)[C@@H]4O)C3(O)CO (stereo not given in full)
 : 3.1%	14.9%
- COc1ccc(F)c(CN2CCC3(CCC(CNC(=O)c4ccn(C)n4)O3)CC2)c1 (stereo not given)
 : -8.6%	-5.7%
- CCCS(=O)(=O)NCc1c(C)ncc2c1CCN(C(=O)c1ccc3[nH]c4c(c3c1)CCCC4)C2
 : -22.0%	-26.4%
- O=C1CN(O)C(c2ccccc2)=c2cc(Cl)ccc2=N1
 : -18.8%	0.1%
- COCc1c(C(=O)NC2CCCC2)cnn1-c1nccc(-c2cccs2)n1
 : 14.3%	21.2%
- CCC1(C2CCN(Cc3ccccn3)CC2)NC(=O)N(CC2COc3ccccc3O2)C1=O (stereo not given)
 : -7.9%	-0.7%
- c1ccc(Nc2ncnc3ccc(-c4cccnc4)cc23)cc1
 : 6.0%	?
- CCCCC[C@H](O)/C=C/C=C\C=C\[C@@H](O)C/C=C\CCCC(=O)O
 : -9.7%	-9.5%
- CCN(CC)C(=O)[C@]1(c2ccccc2)C[C@@H]1CN
 : 20.8%&-8.6%	24.2%&-5.3%
- C=CCCC1CN(Cc2ccco2)S(=O)(=O)c2c(F)cccc2O1 (stereo not given)
 : 39.2%[activator]	17.4%
- O=C(C=NO)NCCCCNC(=O)C=NO
 : 12.7%[8.59 µM]	-2.6%[8.59 µM]
- CC(C)(C)Cn1nc(-c2ccc(Cl)cc2)c2c(N)ncnc21
 : ?	11.2%
- CC(C)=CC[C@@H](O)C1=CC(=O)c2c(O)ccc(O)c2C1=O
 : -6.7%	-1.9%
- CC1C(=O)N(Cc2cn(CCC3OCCO3)nn2)CCS(=O)(=O)N1Cc1ccc(-c2ccc(Cl)c(Cl)c2)cc1 (stereo not given)
 : nt	-29.0%
- Cc1ccnn1CC(=O)N1CCOc2c(cc(-c3csc4ccccc34)cc2OC2CCOC2)C1 (stereo not given)
 : -8.8%	-4.9%
- C=CC(C)(O)CCCC(C)CCCC(C)CCCC(C)C (stereo not given)
 : -23.1%	12.0%
- CCCCC(CC)COC(=O)c1ccc(N(C)C)cc1 (stereo not given)
 : -20.8%	-69.1%
- C[C@@H]1CCC2[C@](C)(CO)[C@@H](O)CC[C@]2(C)[C@]12CCC(CO)(CCO)O2 (stereo not given in full)
 : -1.3%	-13.1%
- CC1(OC(=O)c2cnc3ccccc3n2)C(=O)C=C2C=C(c3ccsc3)OC=C2C1=O (stereo not given)
 : -3.6%	0.1%
- CC[C@H](C)[C@H](NC(=O)[C@H](Cc1ccc(O)cc1)NC(=O)[C@H](CCCNC(=N)N)NC(=O)[C@H](CCCNC(=N)N)NC(=O)[C@H](CC(C)C)NC(=O)[C@H](CCC(N)=O)NC(=O)[C@@H](NC(=O)[C@H](CCC(=O)O)NC(=O)[C@H](Cc1ccc(O)cc1)NC(=O)[C@H](CCC(N)=O)NC(=O)[C@H](C)NC(=O)[C@H](CCCNC(=N)N)NC(=O)[C@H](CCC(N)=O)NC(=O)[C@H](CCC(=O)O)NC(=O)[C@H](Cc1cnc[nH]1)NC(=O)[C@@H](NC(=O)[C@H](C)NC(=O)[C@H](Cc1ccc(O)cc1)NC(=O)[C@H](CC(=O)O)NC(=O)CNC(=O)[C@@H]1CCCN1C(=O)[C@H](Cc1ccc(O)cc1)NC(=O)[C@H](CCSC)NC(=O)[C@@H]1CCCN1C(=O)[C@H](CCC(=O)O)NC(=O)[C@H](CC(C)C)NC(=O)[C@@H]1CCCN1C(=O)[C@H](C)N)[C@@H](C)O)[C@@H](C)O)C(=O)N[C@@H](CC(N)=O)C(=O)N[C@H](C(=O)N[C@@H](CC(C)C)C(=O)N[C@H](C(=O)N[C@@H](CCCNC(=N)N)C(=O)N1CCC[C@H]1C(=O)N[C@@H](CCCNC(=N)N)C(=O)N[C@@H](Cc1ccc(O)cc1)C(N)=O)[C@@H](C)O)[C@@H](C)O
 : -3.6%	11.2%
- CC(C)C[C@@H]1COc2cccc(F)c2S(=O)(=O)N1
 : 2.3%	15.5%
- COc1cccc(-n2c(SC)nnc2C2CCN(Cc3cccc(OC)c3O)CC2)c1
 : -2.7%	?
- CC(=O)OC[C@H]1O[C@H](CC=NO[C@H](C)c2cn([C@@H]3COC[C@@H]3O)nn2)C=C[C@@H]1OC(C)=O
 : -2.9%[8.59 µM]	-12.4%[8.59 µM]
- Cn1ccc2c(-c3ccc4c(c3)OCCO4)cc3c(c21)C1CCC3C1 (stereo not given)
 : -23.0%	?
- Nc1ncc(-c2cccc(S(N)(=O)=O)c2)c2scc(-c3ccc(F)c(Cl)c3)c12
 : ?	3.15µM*
- COC(=O)[C@@H]1CC[C@H](C)[C@@H](c2ccc(C)cc2)N1C(=O)c1ccc(C=NO[C@H](C)c2cn([C@@H]3COC[C@@H]3O)nn2)cc1
 : nt	3.7%[8.59 µM]
- C=CC[C@@]1(c2ccc(OC)cc2)Oc2ccccc2C2=NCCN=C21
 : 15.1%[8.59 µM]	?
- O=C(/C=C/c1ccccc1)OCc1ccccc1
 : 8.9%	0.7%
- Cc1ccc2c(c1)[C@]13CCCC[C@@H]1[C@H](C2)N(C)CC3
 : ?	?
- COc1cccc2c1CCC1=CC(=O)CC[C@@]12C
 : -2.8%	8.9%
- O=S(=O)(c1ccccc1)N(CC(F)(F)F)c1ccc(C(O)(C(F)(F)F)C(F)(F)F)cc1
 : ?	-4.1%
- Nc1ncnc2c1ncn2[C@@H]1O[C@H](C(=O)N2CCN(CC(=O)Nc3cccc4c3CNC4=O)CC2)[C@@H](O)[C@H]1O
 : -25.9%	7.5%
- CSc1ccc([C@H]2CN3CCC[C@H]3c3ccccc32)cc1
 : -25.1%	?
- C[C@@H]1O[C@@H](O[C@H]2CC[C@@H](O[C@H]3[C@H](O)C[C@H](c4ccc5c(c4O)C(=O)C4=C(C5=O)[C@@]5(O)C(=O)C[C@](C)(O[C@H]6CC[C@H](O[C@H]7C=CC(=O)[C@H](C)O7)[C@H](C)O6)C[C@@]5(O)C=C4)O[C@@H]3C)O[C@H]2C)C=CC1=O
 : ?	?
- COCOCCn1cc(CN2CCS(=O)(=O)N(Cc3ccc(-c4ccc(Cl)cc4)cc3)C(C)C2=O)nn1 (stereo not given)
 : 0.1%	-25.1%
- C=CCN1C[C@H](COC(=O)c2cccc(C)c2)Oc2cccc(F)c2S1(=O)=O
 : 13.2%	2.6%
- COc1cc(=O)n2c(c1C(=O)NC(C)c1ccco1)CCN(C(=O)c1cc(C)cc(C)c1)CC2 (stereo not given)
 : 25.3%	41.0%[activator]
- CC(C)(O)C1CC[C@@]2(C)C3CCC4[C@@]5(C)CCCC(C)(C)C5C(O)C[C@]4(C)[C@]3(C)CC[C@@H]12 (stereo not given in full)
 : -4.3%	7.8%
- COc1ccc(NC=O)c(C(=O)CCNC(C)=O)c1
 : -13.9%	0.6%
- CSCC[C@H](NC(=O)[C@H](CC(C)C)NC(=O)CNC(=O)[C@@H]1CCCN1C(=O)[C@H](Cc1ccccc1)NC(=O)[C@H](Cc1ccccc1)NC(=O)[C@H](CC(=O)O)NC(=O)[C@H](Cc1cnc[nH]1)NC(=O)[C@H](CCSC)NC(=O)[C@@H](N)CC(=O)O)C(N)=O
 : -4.5%	-12.3%
- C#CCCCON=C1C[C@@H](O)[C@@H](O)[C@@H]2[C@H]3C(=O)N([C@@H](C)c4ccccc4)C(=O)[C@@H]3CC[C@H]12
 : 8.6%[8.59 µM]	?
- CSC[C@H]1CN(c2ccccc2)C(=O)[C@H]1CC(=O)Nc1ccc(Br)cc1
 : 12.9%	-11.2%
- CC(C)[C@@H](CC(=O)N[C@@H]1CCNC[C@H]1C(=O)N[C@H](CC(=O)N[C@@H](CCC(=O)O)CC(=O)O)Cc1c[nH]c2ccccc12)NC(=O)C[C@H](Cc1ccccc1)NC(=O)[C@@H]1CCCC[C@H]1N
 : -11.2%	-6.7%
- C[C@H]1CC[C@H]2C(=O)NC[C@H](O)CN2[C@H]1c1ccc(Br)cc1
 : 10.8%[8.59 µM]	-9.5%[8.59 µM]
